From PubChem BioAssay
nsP2pro inh – CHIKV nsP2 protease inhibition, primary qHTS; FRET peptide cleavage, nsP2pro, fluorescence 1 h; Q8JUX6; 31,000 compounds, 1.1% hits; Potency, µM (top dose mostly 24.9 µM), for the others: at the highest dose activity change, negative = inhibition, actives largely listed as inhibitors; active means well fitted inhibition curve with a large enough effect; inconclusive means small, poorly fitted or top-dose-only effect; inactive means no such curve, though single readings can be large or run the other way; also: nearly all actives have a fitted effect of over 60% in size; a reference inhibitor and vehicle were the controls
* = called active by the depositor; i = inactive; ? = inconclusive; [ ] = remark or other dose. % is scaled to controls: 0 for no effect and ±100 for the full control effect; potency is read from the fitted curve at half-maximal effect. An excerpt (hit frequency here may not be typical).

SMILES | nsP2pro inh
Cc1ccnc(NC(=S)N2CCN(c3ccc(Cl)c(Cl)c3)CC2)c1 | i
CCC(=O)O[C@H]1[C@H](O[C@@H]2[C@@H](C)[C@H](O[C@H]3C[C@@](C)(OC)[C@@H](O)[C@H](C)O3)[C@@H](C)C(=O)O[C@H](CC)[C@@](C)(O)[C@H](O)[C@@H](C)C(=O)[C@H](C)C[C@@]2(C)O)O[C@H](C)C[C@@H]1N(C)C | -1.9%
CCCCNc1nc(C)nc2c1nc(C)n2CCC | 4.0%
Oc1ccc(/C=C/c2c(F)cccc2F)c2cccnc12 | i
COc1ccc(CCNC(=O)c2cc(-c3ccc(Cl)cc3)on2)cc1OC | -29.8%
O=C(NCc1ccccn1)c1nn(-c2ccccc2F)nc1CO | -5.9%
CNC(=O)C1=C(C)NC(Nc2nc3ccccc3o2)=NC1c1[nH]ncc1Cl (centres undefined) | -16.0%
COc1cc2ncnc(Oc3ccc(CC(=O)Nc4cnn(C(C)C)c4)cc3)c2cc1OC | 3.9%
O=C(Nc1nc(-c2ccccc2)cs1)c1ccccc1-n1cnnn1 | -6.4%
O=C(NCc1ccccc1)C1CCN(c2nc(-c3ccc(Br)cc3)cs2)CC1 | i
Cc1cc2nc(NCCCO)n(CC(=O)c3cc(C(C)(C)C)c(O)c(C(C)(C)C)c3)c2cc1C | 24.7%
CN1CCN(C(=O)c2cc(-c3ccsc3)nc3c2cnn3C)CC1 | -19.8%[39.2 µM]
Cc1[nH]nc2ccc(-c3cncc(OC[C@@H](N)Cc4c[nH]c5ccccc45)c3)cc12 | 139.0%[activator]
COc1ccc(C(=O)N2C[C@@H]3C[C@H](C2)c2ccc(NC(=O)CN(C)C)c(=O)n2C3)cc1 | ?
COCC[C@]1(O)CCN(C(=O)c2cccc(OC)c2C)C[C@H]1C | 0.5%
O=C(O)c1cccc(O)c1O | -20.5%
OC1CCC(Nc2nc(-c3ccccc3)nc3[nH]ccc23)CC1 (centres undefined) | -14.8%
C=CC1(C)CC=C2C(CCC3C(C)(C(=O)O)CCCC23C)C1 (centres undefined) | ?
CC(=O)O[C@H]1CC[C@H]2[C@@H]3CC[C@H]4CC(=O)C=C(C)[C@]4(C)[C@H]3CC[C@]12C | -6.3%
O=C(O)/C=C/c1ccc(O[C@@H]2O[C@H](CO)[C@@H](O)[C@H](O)[C@H]2O)cc1 | -12.3%

Two compounds drawn at random from those above:
SMILES | nsP2pro inh
CNC(=O)C1=C(C)NC(Nc2nc3ccccc3o2)=NC1c1[nH]ncc1Cl (centres undefined) | -16.0%
O=C(O)/C=C/c1ccc(O[C@@H]2O[C@H](CO)[C@@H](O)[C@H](O)[C@H]2O)cc1 | -12.3%

Remaining list, next part:
SMILES | nsP2pro inh
CCCn1c(C)nc2c(NCCOC)nc(C)nc21 | -6.9%
CCn1nccc1C(=O)N1C[C@@H]2CCCN3CCC[C@@H]([C@H]23)[C@H]1CCCC(=O)NC | -16.4%
CCCCN1CCc2nc(N3CCN(C)CC3)ncc2C1 | 10µM*
COc1ccc(N(C)C(=O)CCn2cnc3onc(-c4ccc(F)cc4)c3c2=O)c(OC)c1 | -2.0%
O=C(NCC(=O)N1CCN(Cc2ccccc2)CC1)c1cccc(-c2ccsc2)c1 | 4.3%
C=C1CCC[C@]2(C)CC[C@@H](C(=C)C(=O)O)[C@H](O)[C@@H]12 | -7.5%
O=C(NCCCN1CCN(c2ccccc2F)CC1)C1COc2ccccc2C1 (centres undefined) | 0.3%
Cc1ccc(CSC2=Nc3ccccc3C3=NC(CC(=O)NC4CCCCC4)C(=O)N23)c(C)c1 (centres undefined) | ?
C[C@@H]1[C@H](O)[C@@H]2OC(=O)C3=C2[C@H](CCC3)[C@@]12C[C@@H](c1ccoc1)OC2=O | 5.44µM*
CC(=O)O[C@H]1[C@@]2(O)C[C@H](C)[C@H](OC(=O)c3ccccc3)[C@@H]2[C@@H](OC(=O)CO)[C@]2(OC(C)=O)C[C@H]3C(=O)C(C)(C)C[C@@H]3[C@@]1(C)[C@H]2OC(C)=O | 1.6%[10 µM]
CCc1cnc2c(c1SCC(=O)c1ccc(OC)cc1)c(=O)n(C)c(=O)n2C | -20.3%
C[C@H]1[C@H](O)O[C@@H]2O[C@@]3(C)CC[C@H]4[C@H](C)CC[C@@H]1[C@@]24OO3 | 25.3%
CC(C)NS(=O)(=O)c1ccc2nc(NC(=O)c3cncc(Br)c3)sc2c1 | -9.4%
CCOc1ccccc1CNc1ccc2cc(S(=O)(=O)N3CCC(C)CC3)ccc2n1 | -24.2%
COc1ccc(C(=O)n2nc(-c3ccco3)nc2NCc2cccs2)cc1OC | 12.6µM*
CC(C)N(Cc1ccccc1)C(=O)Cn1ncc2c3ccccc3n(Cc3ccccc3)c2c1=O | -8.4%
O=C(NCCc1ccccc1)c1ccc(CSc2nc3cccnc3n2Cc2ccccc2F)cc1 | 20.8%
CC(=O)Nc1sc2c(c1-c1nc3ccccc3s1)CCN(C(C)=O)C2 | 4.6%
Cc1ccc(-c2cc(C(=O)Nc3cccc(Cl)c3)c3ccccc3n2)cc1C | i
Cc1cc(C(=O)N2CCc3ncnc(N4CCOCC4)c3CC2)n(C)n1 | -3.2%
C=CCc1ccc(O[C@@H]2O[C@H](CO)[C@@H](O)[C@H](O)[C@H]2O)c(OC)c1 | ?
CCCCCn1cc(C(=O)c2cccc3ccccc23)c2ccccc21 | -16.4%
Oc1ccc(NCc2ccccc2OCc2ccc(Cl)cc2)cc1 | 2.39µM*
CC(=O)NC(c1cccs1)c1cc(Cl)c2ccccc2c1O (centres undefined) | i
Cc1cccc(Nc2nnc(-c3ccc(C)c(S(=O)(=O)NCC4CCCO4)c3)c3ccccc23)c1 (centres undefined) | -13.5%
CCOC(=O)c1cnc2cc(C(F)(F)F)ccc2c1N1CCN(c2cccc(Cl)c2)CC1 | -5.8%
O=C(c1ccc(-c2ccc(Cl)cc2)o1)N(Cc1ccccn1)c1ccc(N2CCNCC2)cc1 | 0.9%
CCCCCCCCCCCCSCCOCCO | 2.9%
COC(=O)C1=COC(O[C@@H]2O[C@H](CO)[C@@H](O)[C@H](O)[C@H]2O)/C(=C\COC(=O)/C=C/c2ccccc2)C1CC(=O)OCCc1ccc(O)cc1 (some centres undefined) | 21.3%[10 µM]
Cc1nnc(-c2cnn(C)c2N)n1CCCn1cccc1 | -3.9%
CN1[C@@H]2CC[C@H]1CC(OC(c1ccccc1)c1ccccc1)C2 (some centres undefined) | ?
O=C([C@@H](Cc1ccc(O[S+](=O)([O-])c2cccnc2)cc1)N[S+](=O)([O-])c1cccc2cccnc12)N1CCN(c2ccccc2)CC1 | 3.8%
COc1cccc(C2c3c(ncn(-c4ccccc4)c3=N)Oc3ccc4ccccc4c32)c1OC (centres undefined) | i
O=[S+]1([O-])N(c2ccccc2)C[C@@H](O)[C@]12CCN(Cc1ccc(OC(F)F)cc1)C2 | -11.1%
CCc1cccc(OCC(=O)Nc2ccc(S(=O)(=O)Nc3cc(C)nc(C)n3)cc2)c1 | -9.2%
C[S+](=O)([O-])c1cccc(NC(=O)Cc2c[nH]c3ncc(-c4cccnc4)cc23)c1 | i
Cc1cccc(C(=O)Nc2cc3c(cc2N2CCOCC2)n(C)c(=O)n3C)c1 | 34.9%
Cc1nn2c3c(cnc2c1-c1ccc(Cl)cc1)C(=O)CC(c1ccc(C(C)C)cc1)C3 (centres undefined) | -19.4%
COc1cccc(-c2[nH]cnc2-c2ccccc2)c1OCCCN(C)C | i
O=C(O[C@@H]1O[C@H](CO)[C@@H](O)[C@H](O)[C@H]1O)c1c(O)cc(O)cc1/C=C/c1ccccc1 | 88.6%[activator][10 µM]
O=C(Nc1ccc2ccccc2c1)Nc1nnc(-c2ccc(Cl)cc2Cl)s1 | i
Oc1c(C(c2ccccc2)N2CCOCC2)sc2nc(-c3ccco3)nn12 (centres undefined) | ?
CCCc1cc(CN(C)C(=O)c2ccc3c(c2)[nH]c(=O)n3C2CCC(O)CC2)[nH]n1 (centres undefined) | i
COc1cccc(Cn2c(C)c(CNC3CCCCC3)c(C(=O)O)c2C)c1 | -14.0%
CCCC1c2nccn2CCCN1C(=O)c1cc(C)no1 (centres undefined) | -2.9%
Cc1cccc(C(=O)Nc2sc3c(c2C(=O)NCc2ccco2)CCCC3)c1 | -3.1%
NS(=O)(=O)c1cc(C2(O)NC(=O)c3ccccc32)ccc1Cl (centres undefined) | -0.7%
CC(C)CN1CCC[C@H]1c1nc(-c2ccnc(NS(C)(=O)=O)c2)no1 | i
O=C(CCCc1ccc2cccnc2n1)NCc1cc(-c2ccc(F)c(C(F)(F)F)c2)no1 | i
O=C(c1ccco1)N1CCC2(CCN(CCCn3cccn3)CC2)C(CO)C1 (centres undefined) | ?
COc1ccc(-c2cc3nc4c(c(=O)n3[nH]2)CN(S(=O)(=O)c2cccs2)CC4)cc1 | i
Cc1cccc(C)c1OCc1nc2c3c(-c4ccccc4)c(-c4ccccc4)oc3ncn2n1 | -15.5%
CCOc1ccc(N(Cc2ccccc2)C(=O)c2nc(S(C)(=O)=O)ncc2Cl)cc1 | 5.01µM*
Cc1cccc(N(CC(=O)Nc2ccccc2C(F)(F)F)S(=O)(=O)c2ccccc2)c1C | -25.2%
COc1ccc(CCNC(=O)Cn2ncc3c(=O)oc4ccccc4c32)c(OC)c1 | -9.9%
Cc1ccc(Cl)cc1N1CCN(S(=O)(=O)c2cc(Br)cc3c2N(C(=O)C2CC2)CC3)CC1 | -13.9%
Cc1ccncc1C(=O)N1CCCn2ccnc2C1c1ccccc1 (centres undefined) | i
CCN1CCC[C@@H]1CNC(=O)c1ccc2c(c1)NC(=O)c1cccc(C)c1S2 | 15.5%
O=C(O)C(Cc1ccccc1)NC(=O)C1CCCN1 (centres undefined) | -10.1%
CCC(C(=O)N1CCN(c2cc(Cl)ccc2C)CC1)n1nc(C)c2sc3ccccc3c2c1=O (centres undefined) | -12.0%

An excerpt of these results, with each value named:
> CCCC1c2nccn2CCCN1C(=O)c1cc(C)no1 (centres undefined)
  nsP2pro inh = -2.9%

> Cc1cccc(C(=O)Nc2sc3c(c2C(=O)NCc2ccco2)CCCC3)c1
  nsP2pro inh = -3.1%

> NS(=O)(=O)c1cc(C2(O)NC(=O)c3ccccc32)ccc1Cl (centres undefined)
  nsP2pro inh = -0.7%

> CC(C)CN1CCC[C@H]1c1nc(-c2ccnc(NS(C)(=O)=O)c2)no1
  nsP2pro inh = i

Next results.
SMILES | nsP2pro inh
Cn1cnc(S(=O)(=O)Nc2cnccc2C(=O)Nc2nc(-c3ccccc3)cs2)c1 | i
CC1(C)Oc2ncnc(N)c2N=C1c1ccc(C2CCC(CC(=O)O)CC2)cc1 (centres undefined) | -7.1%
CCCCNC(=O)c1nn(C)c2c1CSc1ccccc1-2 | ?
Clc1cccc(-c2ccc3ncnc(NCc4ccc5c(c4)OCO5)c3c2)c1 | i
CC(C)(C)OC(=O)N1CCN(c2ccc(NCc3ccc(-c4ccc(C#N)cc4)o3)nc2)CC1 | 0.2%
CCOC(=O)C1CCCN(C(=O)c2cc(-c3ccc(Cl)cc3Cl)c3nncn3n2)C1 (centres undefined) | i
COc1ccc(-c2cc(NCc3ccc(C)cc3)n3cnnc3n2)cc1 | -9.6%
O=C(N[C@H](c1cccs1)C1CC(O)C1)c1cnn2cc(CCO)cnc12 (some centres undefined) | i
COc1ccc2c(CNCc3cccs3)c(C(=O)O)n(Cc3ccc(F)cc3Cl)c2c1 | -4.4%
O=C(NCc1cccs1)c1cc2nc(-c3ccco3)cc(C(F)(F)Cl)n2n1 | 5.56µM*
Cc1ccnc(NC(=S)N2CCc3cccc(C(F)(F)F)c3C2)c1 | i
CN(C)C[C@@H]1CN(c2ncccn2)C[C@H]1NS(=O)(=O)c1ccc(Cl)cc1 | -7.6%
CC(O)C1NC(=O)C2CCCN2C1=O (centres undefined) | -12.6%[39.2 µM]
COc1ccc2c(c1)Oc1ncn(CCN3CCOCC3)c(=N)c1C2c1ccc(OC)c(OC)c1 (centres undefined) | -3.8%
CCS(=O)(=O)N1CC(CC#N)(n2cc(-c3ncnc4[nH]ccc34)cn2)C1 | ?
O=C(Cc1ccccc1)Nc1ccc2n(c1=O)C[C@H]1C[C@@H]2CN(S(=O)(=O)c2ccc(Cl)cc2)C1 | ?
CCc1nc(NCCOC)ncc1C(=O)O | 3.2%
O=C(CCc1ccccc1)Nc1ncnc2c1C(c1ccccc1)c1c(ccc3ccccc13)O2 (centres undefined) | -9.8%
O=C(OCC#CCSc1nnc(-c2cccc3ccccc23)o1)c1sccc1Cl | -6.2%
C[C@H](NC(=O)[C@H](Cc1ccccc1)NC(=O)OCc1ccccc1)C(=O)CF | ?
CC(C)(O)C(=O)N1CCN(c2ccc(C(F)(F)F)c(C3=C(c4c[nH]c5ccccc45)C(=O)NC3=O)c2)CC1 | 38.3%
O=C(COc1ccccc1)Nc1ccc2c(c1)CN(Cc1ccccc1F)C(=O)CO2 | -3.3%
CCc1ccc(CNC(=O)c2cc3n(n2)CCCN(Cc2ccccc2)C3=O)cc1 | -14.8%
O=S(=O)(NCC1CN(S(=O)(=O)c2c(F)cccc2F)C1)c1ccc2c(c1)OCCO2 | -1.9%
CCNCC(O)c1cccc(O)c1 (centres undefined) | -3.6%
COCCn1cnnc1C(C)NC(=O)CCc1nc(-c2ccccc2OC)no1 (centres undefined) | i
O=C(O)c1ccc(S(=O)(=O)N[C@H](Cc2ccc(O)cc2)C(=O)O)cc1 | i
COc1ccc(OCc2nc3ccccc3n2C(C)c2ccccc2)cc1 (centres undefined) | 13.8%
O=C1CCCC2=C1C(c1[nH]ncc1Cl)N=C(Nc1nc3cc([S+](=O)([O-])N4CCOCC4)ccc3o1)N2 (centres undefined) | -19.5%
CC1=C(C(=O)O)/C(=C\CO[C@@H]2O[C@H](CO)[C@@H](O)[C@H](O)[C@H]2O)C(OC(=O)/C=C\c2ccc(O)cc2)C1 (some centres undefined) | 0.0242µM*
O=C(c1csc2nc(-c3ccc(F)cc3)cn12)N1C[C@H]2CC[C@@H](C1)N2 | -17.4%
COC1=CC(=O)O[C@@H](/C=C/c2ccccc2)C1 | -4.3%
